UUG fidelity – alters start codon recognition fidelity in yeast; S. cerevisiae UUG-firefly luciferase reporter, luminescence/redox ratio; activity score, % at 18.7 µM; 0.13% of 350,000 active;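 active means replicate mean at a twofold rise or more, about +100% in these data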;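 further: firefly luciferase made from a UUG start codon reports start codon fidelity; reporter light over untreated wells divided by growth signal over untreated wells; some hits fall short of that in this replicate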
CSC inhib – cancer stem cell inhibition. inhibition, % at 7.5 µM. cancer stem cell-like cells viability, luminescence. 1.1% of 300,000 active;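 active means mean at 75% or more and at least half the replicates too; inconclusive means mean and replicates disagree; tested in HMLE shEcad cells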;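 further: 0% = median of negative and 100% = median of positive control wells; the first replicate is given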
MT1-MMP act inh – blocks activation of human MT1-MMP. P50281. HT1080 RFP-PRO-GFP cells, GFP/RFP ratio fluorescence, overnight; percent of plate control window, DMSO zero. GFP/RFP ratio change, % at 20 µM. 0.061% of 360,000 active. AID 651647;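 active means GFP/RFP ratio change of at least 30% with cell ATP level not reduced by more than half and red fluorescence within 50% of control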; further: strong numbers were not always called active
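Material: RFP-PRO-GFP reporter HT1080 cells. Dosing: single-point 20 µM compound, 1% DMSO. Controls: DMSO and RFP-L50D-GFP cell wells. Timing: cells overnight before dosing, compound overnight, 37 °C, 5% CO2. Measure: GFP/RFP fluorescence ratio.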
Rce1 inhib – inhibitors of yeast Ras-converting enzyme | Q03530 | yeast membranes, quenched prenylated peptide cleavage fluorescence | calls only | 0.27% of 290,000 active | AID 2563;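 active means fall in fluorescence gain of 50% or more versus controls, with final raw signal at or below 3038400; inconclusive means same 50% fall but final raw signal above 3038400; inactive means fall in fluorescence gain under 50%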;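 further: plate controls were neutral control wells for no effect and wells lacking membranes for full effect; tested at 10 µM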
Target sequence (Q03530 whole entry, looked up): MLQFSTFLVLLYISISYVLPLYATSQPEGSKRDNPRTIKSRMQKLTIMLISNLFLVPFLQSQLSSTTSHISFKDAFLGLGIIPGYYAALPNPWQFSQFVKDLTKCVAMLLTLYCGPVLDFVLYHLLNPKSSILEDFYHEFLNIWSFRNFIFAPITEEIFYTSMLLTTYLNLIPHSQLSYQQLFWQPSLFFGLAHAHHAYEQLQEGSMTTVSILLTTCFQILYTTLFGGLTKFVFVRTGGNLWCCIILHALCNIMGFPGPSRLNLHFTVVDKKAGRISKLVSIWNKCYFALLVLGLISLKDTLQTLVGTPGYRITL
eIF4H inh – inhibitors of RNA binding by human eIF4H; Q15056; eIF4H fluorescence polarization binding assay; inhibition, % at 35 µM; 0.94% of 290,000 active;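 active means 50% or more with normal probe brightness, or confirmed in later tests; inconclusive means above 50% with abnormal brightness, or retests that disagree; inactive means below 50% or failed in later tests; about a fifth of its hits are not listed in these tables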;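 further: calls also rest on retests at 20 µM and on dose response follow-up; 0% = protein and probe with vehicle and 100% = probe without protein; strong numbers were not always called active; many hits fall short of the cut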
HIV Env fusion – blocks HIV Env-driven cell-cell fusion; inhibition, % at 12.3 µM; 1.1% of 360,000 active; HeLa-JRFL Env/CEM21 cell fusion, luciferase;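 active means mean replicate inhibition score of at least 50 and every replicate individually at or above 50; inconclusive means only one of the two criteria met; inactive means mean below 50 and not all replicates reaching 50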;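 further: 0% = plate neutral controls and 100% = maraviroc near 300 nM; one replicate is shown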
PABP FP inh – PABP-poly(A) binding inhibition | 1% of 290,000 active | AID 2014 | PABP-poly(A) RNA binding, fluorescence polarization | inhibition, % at 35 µM | P11940;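 active means 50% or more with normal probe brightness, or confirmed in later tests; inconclusive means above 50% with abnormal brightness, or retests that disagree; inactive means below 50% or failed in later tests; about a fifth of its hits are not listed in these tables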;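 further: calls also rest on retests at 20 µM and on dose response follow-up; controls were probe without protein and protein plus probe with vehicle; some compounds called inactive have numbers as strong as hits; many hits fall short of the cut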
eIF4H inh retest – second read-out of eIF4H inh, no call of its own (marks repeat the call); inhibition, %; compound at 20 µM; confirmation average;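 mean of two retest wells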
PABP FP inh retest – recorded beside PABP FP inh, whose call it bears; inhibition, %; compound at 20 µM; confirmation repeats;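 mean of two retest wells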
MT1-MMP act inh RFP – also measured in MT1-MMP act inh; calls as there; RFP signal change, %; measured here: RFP expression control read;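 0 = vehicle wells; hits needed this value within 50% of zero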
* = called active by the depositor.

Screening C=CCN(Cc1cccc(OC)c1OC)S(=O)(=O)N(C)C returned UUG fidelity -18, CSC inhib -19, MT1-MMP act inh 3, Rce1 inhib inactive, eIF4H inh -6, PABP FP inh -4 and MT1-MMP act inh RFP 1.
`NS(=O)(=O)c1ccc(CNC(=O)/C=C/c2ccco2)cc1` gave UUG fidelity 4, CSC inhib -9, MT1-MMP act inh -4, Rce1 inhib inactive, eIF4H inh 79*, HIV Env fusion 9, PABP FP inh 26, eIF4H inh retest 86*, PABP FP inh retest 46 and MT1-MMP act inh RFP 6.
`COCC(C)n1c(SCC(=O)Nc2cc(C)on2)nc2ccccc2c1=O` (stereo not drawn) gave UUG fidelity 9, MT1-MMP act inh 2, HIV Env fusion 7 and MT1-MMP act inh RFP 1.
Screening Cc1cccc(C)c1N(Cc1ccccc1F)S(C)(=O)=O returned CSC inhib 0, MT1-MMP act inh 1, Rce1 inhib inactive, eIF4H inh 0, HIV Env fusion 19, PABP FP inh 19 and MT1-MMP act inh RFP 5.
CC(C)Oc1ccc(C(CC(=O)O)n2cnnn2)cc1 (stereo not drawn) was read as UUG fidelity -21, CSC inhib -1, MT1-MMP act inh -1, Rce1 inhib inactive, eIF4H inh 2, HIV Env fusion 5, PABP FP inh 5 and MT1-MMP act inh RFP 0.
`COCCNC(=S)N(Cc1cc2cc(C)ccc2n2nnnc12)C1CCCC1` gave UUG fidelity 2, CSC inhib -6, MT1-MMP act inh -26, Rce1 inhib inactive, eIF4H inh 0, HIV Env fusion 60*, PABP FP inh 1 and MT1-MMP act inh RFP -22.
Screening CCCCN(C)C(=O)Cn1c(=O)oc2cc(S(=O)(=O)N3CC(C)CC(C)C3)ccc21 (stereo not drawn) returned MT1-MMP act inh -7, Rce1 inhib inactive, eIF4H inh -12, HIV Env fusion 1, PABP FP inh 7 and MT1-MMP act inh RFP -6.
For Cc1ccc(Cl)cc1N1CCN(C2CCCCC2NS(=O)(=O)c2ccccc2)CC1 (stereo not drawn) the results were UUG fidelity -8, CSC inhib -1, MT1-MMP act inh -20, Rce1 inhib inactive, eIF4H inh -18, PABP FP inh -5 and MT1-MMP act inh RFP -14.
Screening CN1C(=O)CC(c2cn(Cc3ccccc3)c3ccccc23)C1=O (stereo not drawn) returned CSC inhib 14, MT1-MMP act inh -13, Rce1 inhib inactive, eIF4H inh 4, HIV Env fusion 10, PABP FP inh 8 and MT1-MMP act inh RFP 4.
For Cc1cccc(NS(=O)(=O)c2csc(C(N)=O)c2)c1 the results were UUG fidelity -1, CSC inhib -14, MT1-MMP act inh 2, Rce1 inhib inactive, eIF4H inh 0, HIV Env fusion 5, PABP FP inh 8 and MT1-MMP act inh RFP -3.
Screening COCCn1c(-c2ccc(Cl)cc2)nc2c(c(=O)c3ccccc3n2C)c1=O returned CSC inhib -10, Rce1 inhib inactive, eIF4H inh 0, HIV Env fusion 1 and PABP FP inh -4.
`Cc1ccc(NC(=O)CS(=O)CC(=O)NCC2CCCO2)cc1` (stereo not drawn) gave UUG fidelity -10, CSC inhib -12, MT1-MMP act inh 0, Rce1 inhib inactive, eIF4H inh -5, HIV Env fusion 4, PABP FP inh 10 and MT1-MMP act inh RFP 1.
For Cn1ncc(N=Cc2ccccc2)c1C(N)=O the results were UUG fidelity -23, CSC inhib -11, MT1-MMP act inh 3, Rce1 inhib inactive, eIF4H inh 1, PABP FP inh 4 and MT1-MMP act inh RFP 6.
`COc1ccccc1-c1noc(-c2ccccc2C(=O)NCC2CCCO2)n1` (stereo not drawn) gave UUG fidelity -4, CSC inhib 8, MT1-MMP act inh 1, Rce1 inhib inactive, eIF4H inh 2, HIV Env fusion -7, PABP FP inh 6 and MT1-MMP act inh RFP 5.
Screening CN(C(=O)CSc1n[nH]c(=O)[nH]c1=O)c1ccccc1 returned UUG fidelity -18, CSC inhib -27, MT1-MMP act inh 3, HIV Env fusion 17 and MT1-MMP act inh RFP 0.
O=S(=O)(Nc1ccc(O)c2ccccc12)c1ccc(OC(F)(F)F)cc1 was read as UUG fidelity -7, CSC inhib 106*, MT1-MMP act inh -4, Rce1 inhib inactive, HIV Env fusion 9 and MT1-MMP act inh RFP -6.
Screening CC(C)N1CC(C(=O)Nc2nc3ccccc3s2)CC1=O (stereo not drawn) returned UUG fidelity -8, CSC inhib -28, MT1-MMP act inh 0, Rce1 inhib inactive, eIF4H inh -10, HIV Env fusion -100, PABP FP inh -4 and MT1-MMP act inh RFP 4.
Screening COc1cccc(-n2c(SCC(=O)NCc3cccs3)nc3ccccc3c2=O)c1 returned CSC inhib -4, MT1-MMP act inh 2, Rce1 inhib inactive, eIF4H inh -8, HIV Env fusion 42, PABP FP inh -25 and MT1-MMP act inh RFP 2.
`CC(=O)N1CCC2(CC1)C/C(=N\NC(=S)Nc1ccc(C)cc1)c1cc(O)ccc1O2` gave UUG fidelity -32, CSC inhib 17, MT1-MMP act inh -21, Rce1 inhib inactive, eIF4H inh -3, HIV Env fusion 10, PABP FP inh -2 and MT1-MMP act inh RFP -14.
For COc1ccc(-n2c(=O)c3c4c(sc3n3cnnc23)CC(C)CC4)cc1 (stereo not drawn) the results were UUG fidelity -16, CSC inhib -13, MT1-MMP act inh -3, Rce1 inhib inactive, HIV Env fusion -8 and MT1-MMP act inh RFP -4.
For CN(CCc1ccccn1)C(=S)Nc1cccc(S(=O)(=O)N(C)C)c1 the results were UUG fidelity -27, CSC inhib -7, MT1-MMP act inh 0, Rce1 inhib inactive, eIF4H inh -8, HIV Env fusion 12, PABP FP inh 6 and MT1-MMP act inh RFP -1.
`COc1ccc(NC(=O)c2ccc(-n3cccn3)nc2)c(OC)c1` gave UUG fidelity -13, CSC inhib 1, MT1-MMP act inh -10, Rce1 inhib inactive, eIF4H inh 4, HIV Env fusion -8, PABP FP inh -6 and MT1-MMP act inh RFP 1.
`C/C(=N\NC(=S)NC1CCCCC1)c1ccc(OC(F)F)cc1OC(F)F` gave CSC inhib 9, MT1-MMP act inh -10, Rce1 inhib inactive, eIF4H inh 4, HIV Env fusion 26, PABP FP inh -14 and MT1-MMP act inh RFP -27.
For CCOC(=O)c1ccc(NC(=S)N2CCN(CCNC3=CC(=O)CC(C)(C)C3)CC2)cc1 the results were CSC inhib -1, MT1-MMP act inh 3, Rce1 inhib inactive, eIF4H inh 3, HIV Env fusion -11, PABP FP inh 1 and MT1-MMP act inh RFP 4.
CCOc1ccc(-c2ccc(/C=C3/C(=N)N4C=CSC4=NC3=O)o2)c([N+](=O)[O-])c1 was read as UUG fidelity -14, CSC inhib 42, MT1-MMP act inh -1, Rce1 inhib inactive, eIF4H inh inconclusive, PABP FP inh -5 and MT1-MMP act inh RFP -3.
Screening Cc1ccc(-c2nc3ccccc3c(=O)n2CCCn2ccnc2)cc1 returned UUG fidelity -13, CSC inhib -2, MT1-MMP act inh -3, Rce1 inhib inactive, eIF4H inh 1, HIV Env fusion -6, PABP FP inh 3 and MT1-MMP act inh RFP 0.
`CCOC(=O)C1CCCN(C(=O)c2ccc(Cn3c(=S)[nH]c4cc(C(=O)OC)ccc4c3=O)cc2)C1` (stereo not drawn) gave CSC inhib 20, MT1-MMP act inh -2, Rce1 inhib inactive, eIF4H inh 5, HIV Env fusion -11, PABP FP inh -6 and MT1-MMP act inh RFP -7.
For O=C(NC(=S)NCCSc1ccccc1)c1cccnc1 the results were CSC inhib -9, MT1-MMP act inh 4, Rce1 inhib inactive, eIF4H inh -3, HIV Env fusion -7, PABP FP inh -3 and MT1-MMP act inh RFP 5.
For COc1ccc(NS(=O)(=O)c2cccc(NC(=O)c3ccc(S(=O)(=O)N4CCCCCC4)cc3)c2)cc1 the results were UUG fidelity -7, MT1-MMP act inh 0, Rce1 inhib inactive, eIF4H inh 0, PABP FP inh 37 and MT1-MMP act inh RFP -29.
FC(F)(F)c1ccccc1/C=N/n1c(C2CCCCC2)n[nH]c1=S was read as UUG fidelity -5, MT1-MMP act inh -3, Rce1 inhib inactive, eIF4H inh 9, HIV Env fusion 7, PABP FP inh 10 and MT1-MMP act inh RFP -3.

Two compounds picked at random from the list so far:
Screening Cc1ccc(-c2nc3ccccc3c(=O)n2CCCn2ccnc2)cc1 returned UUG fidelity -13, CSC inhib -2, MT1-MMP act inh -3, Rce1 inhib inactive, eIF4H inh 1, HIV Env fusion -6, PABP FP inh 3 and MT1-MMP act inh RFP 0.
`C/C(=N\NC(=S)NC1CCCCC1)c1ccc(OC(F)F)cc1OC(F)F` gave CSC inhib 9, MT1-MMP act inh -10, Rce1 inhib inactive, eIF4H inh 4, HIV Env fusion 26, PABP FP inh -14 and MT1-MMP act inh RFP -27.

Carrying on.
For C=CCNS(=O)(=O)c1ccc(OCC(=O)OC)cc1 the results were UUG fidelity -13, CSC inhib 11, MT1-MMP act inh 3, Rce1 inhib inactive, eIF4H inh 2, PABP FP inh -5 and MT1-MMP act inh RFP 7.
Screening CCOc1ccc(CCNC(=O)COC(=O)/C=C/c2ccc(OC)c(OC)c2)cc1OCC returned UUG fidelity 21, MT1-MMP act inh 1, Rce1 inhib inactive, eIF4H inh -7, HIV Env fusion -9, PABP FP inh -1 and MT1-MMP act inh RFP 10.
Screening COc1ccc(C(=O)c2coc3ccc(O)cc23)cc1 returned UUG fidelity -12, CSC inhib 10, MT1-MMP act inh 2, Rce1 inhib inactive, eIF4H inh -5, HIV Env fusion -97, PABP FP inh -2 and MT1-MMP act inh RFP -5.
For CC(C)(C)NC(=O)c1ccccc1NC(=O)C1CCCO1 (stereo not drawn) the results were CSC inhib -3, MT1-MMP act inh -2, Rce1 inhib inactive, eIF4H inh -1, HIV Env fusion 26, PABP FP inh -1 and MT1-MMP act inh RFP 4.
COC(=O)C1=C(C)N(C)C(=O)NC1c1cc2c(cc1Br)OCO2 (stereo not drawn) was read as UUG fidelity 5, CSC inhib 1, MT1-MMP act inh 1, Rce1 inhib inactive, eIF4H inh 3, HIV Env fusion -26, PABP FP inh -5 and MT1-MMP act inh RFP 2.
`COc1ccc(N2CCN(C(=O)CCCn3c(=O)[nH]c4ccsc4c3=O)CC2)cc1` gave UUG fidelity -6, CSC inhib -7, MT1-MMP act inh 2, Rce1 inhib inactive, eIF4H inh -3, HIV Env fusion 5, PABP FP inh -8 and MT1-MMP act inh RFP -1.
Cc1ccc(S(=O)(=O)Nc2c3ccccc3nc(=O)n2-c2ccccc2)cc1 was read as UUG fidelity -18, CSC inhib 3, MT1-MMP act inh 4, Rce1 inhib inactive, eIF4H inh -15, PABP FP inh 9 and MT1-MMP act inh RFP 7.
`COc1cccc(-c2c(C(=O)N/N=C/c3cccnc3)nnn2-c2nonc2N)c1` gave UUG fidelity -16, CSC inhib -5, MT1-MMP act inh -8, Rce1 inhib inactive, eIF4H inh -17, HIV Env fusion 3, PABP FP inh 3 and MT1-MMP act inh RFP -4.
`Cc1cccc(OCc2nnc3n2CCCCC3)c1` gave UUG fidelity -16, CSC inhib -14, MT1-MMP act inh -2, eIF4H inh -4, HIV Env fusion 18, PABP FP inh 1 and MT1-MMP act inh RFP 0.
O=C(Nc1c(F)cc(F)cc1Br)c1cc(-c2ccco2)on1 was read as UUG fidelity -23, CSC inhib 0, MT1-MMP act inh -9, Rce1 inhib inactive, eIF4H inh -11, PABP FP inh 0 and MT1-MMP act inh RFP 3.
For CCOc1cc(/C=N\NC(=O)CN2CCOCC2)ccc1OCc1ccc(F)cc1 the results were CSC inhib -10, MT1-MMP act inh 7, Rce1 inhib inactive, eIF4H inh -4, HIV Env fusion -16, PABP FP inh 10 and MT1-MMP act inh RFP 9.

Screening data: PubChem, several laboratories
